# Screening data (PubChem)
# RE007 growth inh = less growth of the S. pombe RE007 Vpr strain | S. pombe RE007 Vpr strain, BacTiter-Glo ATP luminescence, 24 h; control for the full effect not named in the record | Potency, µM (series often up to 92.2 µM), for inactives: at the highest dose activity change, negative = less growth | 0.21% of 360,000 active | AID 651644; active = well fitted falling curve with a large enough effect; inconclusive = small, poorly fitted or top-dose-only effect; inactive = no such curve, though single readings can be large or run the other way;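 further: on the % scale 0 is the no-effect control and ±100 the full control effect; nearly all actives have a fitted effect of over 50% in size; the assay follows cell death caused by Vpr and the record does not say whether a fall means rescue or toxicity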
#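 Fission yeast strain RE007, carrying one chromosomally integrated HIV-1 vpr copy, was seeded at OD 0.01 in PMG+AL medium with 23 nL pinned compound. After 24 h at 30 °C and 99% humidity, viability was read by BacTiter-Glo luminescence.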
# StopGo reporter = FMDV 2A StopGo reporter, luciferase signal | 1.2% of 410,000 active | Potency, µM (highest dose often 57.9 µM), for the others: top-dose signal change, negative = less light | human cells with a luciferase reporter of 2A StopGo recoding; control for the full effect not named in the record; active = well fitted falling curve with a large enough effect; inconclusive = small, poorly fitted or top-dose-only effect; inactive = no such curve, though single readings can be large or run the other way; tested in HEK293T cells; further: on the % scale 0 is the no-effect control and ±100 the full control effect; nearly all actives have a fitted effect of over 45% in size; luciferase light after 4 h
# NS1 function inh = influenza NS1 inhibition; Potency, µM (doses to about 46.1 µM), without a hit: at the highest dose activity, positive = more growth; 0.4% of 270,000 active; S. cerevisiae slowed by influenza A NS1, growth recovery by OD600; further: actives are rising curves; nearly all actives have a fitted effect of over 50% in size
#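 S. cerevisiae expressing influenza A NS1, grown in glucose, washed, then diluted 1:100 into pH 6.0 -URA galactose medium with 23 nl compound. Growth recovery read as OD600; NS1-free strain serves as control.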
# Cruzain inh Det = inhibitors of Trypanosoma cruzi cruzain with detergent; 0.43% of 200,000 active; purified cruzain, Z-FR-AMC fluorescence, 0.01% Triton; P25779; Potency, µM, inactives show max response, negative = inhibition, usual class: inhibitors; active means well fitted curve in the direction sought with a large enough effect; inconclusive means small, poorly fitted or top-dose-only effect, or another doubt; inactive means no such curve, though single readings can be large; an effect the other way counts as inactive or inconclusive;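 further: plate controls were neutral wells for no effect and buffer without enzyme for full effect; nearly all actives have a fitted effect of over 40% in size; top concentration of the series not given in the record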
# Target sequence (P25779 123-467 limits assumed): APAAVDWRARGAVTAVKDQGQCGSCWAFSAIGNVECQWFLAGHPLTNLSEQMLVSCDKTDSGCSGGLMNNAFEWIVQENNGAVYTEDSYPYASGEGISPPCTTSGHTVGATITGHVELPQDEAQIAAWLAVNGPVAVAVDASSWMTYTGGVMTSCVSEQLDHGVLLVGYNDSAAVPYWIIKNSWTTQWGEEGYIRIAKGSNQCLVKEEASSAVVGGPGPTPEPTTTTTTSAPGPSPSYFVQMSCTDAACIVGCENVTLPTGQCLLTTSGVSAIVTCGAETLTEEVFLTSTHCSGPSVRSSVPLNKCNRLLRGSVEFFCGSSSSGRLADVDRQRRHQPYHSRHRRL
#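 Compounds were screened in titration against cruzain (1.5 nM) with 0.01% Triton X-100 to counter colloidal aggregation. Activity was the AMC fluorescence increase over 60 s after adding 2 uM Z-FR-AMC at pH 5.5.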
# Lassa entry inh = Lassa virus entry inhibition. Lassa virus pseudotype entry inhibition, cell reporter; control for the full effect not named in the record. Potency, µM (doses to about 37.9 µM), without a hit: at the highest dose activity change, negative = inhibition, actives largely listed as inhibitors. 1.2% of 300,000 active. AID 540256; active means well fitted inhibition curve with a large enough effect; inconclusive means small, poorly fitted or top-dose-only effect, or effect the other way; inactive means flat fitted curve, though single readings scatter; tested in HEK293 cells; further: on the % scale 0 is the no-effect control and ±100 the full control effect; nearly all actives have a fitted effect of over 50% in size; luciferase read-out
# MARV entry inh = Marburg virus entry inhibition; Marburg virus pseudotyped entry inhibition, cell reporter; control for the full effect not named in the record; about a third of the inactives were read at about 46 µM; Potency, µM (doses to about 37.8 µM), inactives show at the top dose activity change, negative = inhibition, most hits filed as inhibitors; 1.8% of 300,000 active; active = well fitted inhibition curve with a large enough effect; inconclusive = small, poorly fitted or top-dose-only effect, or effect the other way; inactive = flat fitted curve, though single readings scatter; tested in HEK293 cells; about a fifth of its hits are not listed in these tables; further: on the % scale 0 is the no-effect control and ±100 the full control effect; luciferase read-out
# SARS PLP yeast = SARS-CoV PLP inhibition in yeast; S. cerevisiae expressing SARS-CoV PLpro, growth rescue; control for the full effect not named in the record; 0.19% of 330,000 active; AID 485353; Potency, µM (doses to about 32.9 µM), for the others: top-dose activity, positive = growth rescue; further: 0% is about no effect; nearly all actives have a fitted effect of over 55% in size; growth read by luminescence after 48 h
# Cruzain noTriton = blocks cruzain activity in detergent-free assay | purified cruzain, Z-FR-AMC fluorescence, no detergent | 2.3% of 200,000 active | Potency, µM, inactives show max response, negative = inhibition, most hits filed as inhibitors | P25779; active means well fitted curve in the direction sought with a large enough effect; inconclusive means small, poorly fitted or top-dose-only effect, or another doubt; inactive means no such curve, though single readings can be large; an effect the other way counts as inactive or inconclusive;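 further: plate controls were enzyme without inhibitor for no effect and buffer without enzyme for full effect; nearly all actives have a fitted effect of over 40% in size; top concentration of the series not given in the record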
#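 Purified cruzain at 1.5 nM, pre-incubated 15 min with compound at room temperature in 100 mM sodium acetate pH 5.5, 5 mM DTT, 0.00005% Triton X-100. Reaction started with 2 uM Z-FR-AMC; AMC fluorescence increase over 60 s gives rate.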
# The depositor's hits bear a star; ? = inconclusive; / = no result given; & = joins results of further samples; [ ] = remark or other dose. Unless noted, the call rests on the fitted dose curve; in most records, active means well fitted rising curve with a large enough effect; inconclusive means small, poorly fitted or top-dose-only effect; inactive means no such curve, though single readings can be large or run the other way. Potency means the concentration at half of the fitted maximal effect. Compounds as they come. About 4.7% of those tested had a hit in this group.
SMILES,RE007 growth inh,StopGo reporter,NS1 function inh,Cruzain inh Det,Lassa entry inh,MARV entry inh,SARS PLP yeast,Cruzain noTriton
CCOc1ccc(N(CC(=O)Nc2ccc(C)c(F)c2)C2=NC3CS(=O)(=O)CC3S2)cc1 (centres undefined),0%,-30%,4%,/,/,/,-3%,/
C#CCOc1ccc2ccccc2c1/C=C(/C#N)c1ccc(C(=O)O)cc1,5%,-9%,-10%,/,22%,?,1%,/
CCOC(=O)N1CCN(C(=O)c2ccc3c(c2)sc2nc(-c4ccc(OC)cc4)cn23)CC1,-13%,-11%,13%,-27%,-28%,?,-7%,?
CCN(CC)c1nc(N)c2c(N)nc3c(c2c1C#N)CC(c1ccccc1)O3 (centres undefined),7%,-26%,-13%,-26%,0%,?,-3%,?
O=C(CSc1nnc(-c2ccco2)n1-c1ccccc1)NCCc1ccccc1,-4%,0%,3%,-2.1%,-2%,11%,7%,-1%
Nc1c(C(=O)NCc2ccccc2)sc2nc(N3CCOCC3)c3c(c12)CCCC3,-3%,-11%,15%,-18%,?,?,0%,?
COc1ccc(N2C(N)=C(C#N)C(c3cccnc3)C3=C2CC(C)(C)CC3=O)cc1 (centres undefined),4%,-15%,?,2.8%,-25%,?,-3%,12%
O=S(=O)(O)c1nc2ccccc2n1CCOc1ccccc1,17%,2%,-1%,2.6%,0%,14%,-1%,-5%
CSc1nc2[nH]c(=O)[nH]c2c(=O)[nH]1,-1%,-5%,/,/,-24%[46.1 µM],4%[46.1 µM],/,/
CC(C)C1Oc2ccccc2C(=O)N(CC(=O)c2ccc3c(c2)OCCO3)C1=O (centres undefined),-7%,29%,3%,/,/,/,-1%,/
CCCn1c(=N)n(CCOc2ccc(OC)cc2)c2ccccc21,3%,-26%,-9%,3.7%,5%,?,1%,2%
Cn1ncc(Cl)c1C(=O)NCc1cc(C(C)(C)C)n[nH]1,1%,?,-4%,-3.3%,13%,?,0%,-7%
Cc1cc(NS(=O)(=O)c2ccc(NC(=O)CCN3C(=O)c4ccccc4C3=O)cc2)no1,8%,0%,0%,-2.4%,1%,0%,1%,-10%
COC(=O)c1ccc(C(=O)OC)c(NC(=O)CCc2ccc(C)o2)c1,-11%,2%,-14%,-7.6%,8%,?,0%,14%
COc1ccc(CCNC(=O)c2ccc(Cn3c(=O)c4ccccc4n(Cc4ccc(C)cc4)c3=O)cc2)cc1OC,/,-29%,/,-2.2%,7%[46.1 µM],?,/,-9%
COc1cc(CC(=O)Nc2ccc3c(c2)CCC3)cc(OC)c1OC,-11%,?,4%,-2.3%,-21%,?,16%,3%
CN(c1ccc(C(=O)NCc2ccccn2)cc1)S(C)(=O)=O,8%,/,-4%,1.6%,-1%,5%,8%,-5%
CC(C)C(=O)n1nc(-c2cccnc2)nc1NCc1cccs1,1%,-11%,/,/,10%,-1%,-1%,/
Cc1ccc(C(=O)COC(=O)c2cccc(N3C(=O)c4c(C)nc5ccccc5c4C3=O)c2)cc1C,-5%,-3%,5%,-2.9%,?,18%,14%,7.9µM*
COc1cc2c(cc1OC)-c1cc(OCCN3CCOCC3)nc(=O)n1CC2,-9%,-12%,-8%,?,-12%,?,11%,?
NC(=O)COC(=O)CNC(=O)c1sc2ccccc2c1Cl,-4%,0%,/,/,20%[46.1 µM],-7%[46.1 µM],2%,/
CCN(CC)S(=O)(=O)c1ccc(OC)c(NC(=O)c2ccc(OC)c([N+](=O)[O-])c2)c1,-9%,-18%,/,/,?,?,/,/
CCC1OC2(C)OC(=N)C1(C#N)C(C#N)(C#N)C2c1ccccc1 (centres undefined),-3%,-35%,15%,-0.1%,-13%,0%,3%,-1%
COc1cc(C(=O)OCC(=O)NC(N)=O)cc(CN2C(=O)c3ccccc3C2=O)c1OC,-17%,-13%,5%,/,/,/,3%,/
COc1ccc(CC(=O)OCN2C(=O)c3ccccc3C2=O)cc1,-12%,3%,-5%,-2.5%,-2%,-25%&-25%,0%,-1%
O=c1oc(-c2ccco2)nc2sc3c(c12)CCCC3,-14%,/,-21%,-6.1%,?,?,-17%,-30%
CC(C)c1cc(C(=O)O)on1,-10%,12%,5%,5.8%,?,13%,14%,-4%
CN(C(=O)CSc1cn(CC(=O)N2CCCCCC2)c2ccccc12)c1ccccc1,/,5%,/,-5.1%,-15%[46.1 µM],/,/,9%
O=C(CCSc1nc(-c2ccco2)cc(C(F)(F)F)n1)NCc1cccs1,11%,-9%,5%,-11%,-8%,8%,-9%,16%
O=C(CSc1ccc([N+](=O)[O-])cn1)Nc1ccc2[nH]c(=O)[nH]c2c1,40%,6%,-10%,/,-17%[46.1 µM],9%[46.1 µM],1%,/
CCN(CC)c1cc(CS(=O)c2ccccc2)nc(-c2ccccc2)n1 (centres undefined),28%,-29%,/,/,-9%,?,/,/
Cc1ccc(-c2nc(S(=O)(=O)c3ccc(C)cc3)c(N3CCCCC3)o2)cc1,/,39%[activator],/,-2.9%,?,/,/,4%
Nc1ccc(C(=O)N/N=C/c2cn(Cc3ccccc3F)c3ccccc23)cc1,1%,6%,-3%,/,?,-15%[46.1 µM],-1%,/
O=C(Cn1ccc2ccccc21)Nc1ccc2c(c1)OCO2,-27%,-15%,-6%,/,-3%[46.1 µM],?,0%,/
O=C(Nc1cccnc1)c1cccc(S(=O)(=O)N2CCCCC2)c1,0%,?,-3%,/,-31%,1%[46.1 µM],-1%,/
CC1=C(C#N)CCC(=O)N1Cc1ccc(C)cc1,26%,-8%,-3%,1.5%,10%,14%,6%,0%
CCOc1ccc(NS(=O)(=O)c2ccc3c(c2)oc(=O)n3C)cc1,-2%,-12%,-5%,1.9%,7%,-2%,4%,5%
O=C(Cc1ccc(F)cc1)NCCc1ccc(F)cc1,11%,-5%,-9%,9.7%,20%,?,-6%,-10%
CCOc1cccc(C2Oc3nc(SC)nnc3-c3ccccc3N2C(C)=O)c1OC (centres undefined),/,7%,/,-6.1%,10%[46.1 µM],-6%[46.1 µM],/,-13%
Cc1ccc(S(=O)(=O)NNC(=O)c2cnn(-c3ccc(Cl)cc3)c2C(F)(F)F)cc1,-9%,-15%,1%,/,-11%,-22%,0%,/
O=C(O)c1ccccc1C(=O)NCC(O)COCC1CC=CCC1 (centres undefined),-21%,20%,2%,1.3%,14%,21%,2%,-10%
Cc1nc2ccc(NS(=O)(=O)c3ccc(C)c(C)c3)cc2s1,-7%,-1%,-58%,-5.7%,-12%,?,-16%,-15%
O=C(NC(c1ccccc1)c1ccccc1)c1ccc(CO)cc1,20%,-13%,13%,/,2%,-1%[46.1 µM],9%,/
O=C(/C=C/c1ccccc1)Nc1cccnc1,-18%,55%[activator],-58%,/,/,/,-10%,/
COc1cc(OC)c(NC(=O)c2ccc3c(c2)N(Cc2ccc(C)cc2)CCS3)cc1Cl,/,-13%,/,-3.8%,-2%[46.1 µM],-20%[46.1 µM],/,7.9µM*
O=C1CCCc2nc3nc4ccccc4n3cc21,/,/,-1%,5.0%,/,3%,2%,-4%
COc1cc2ccccc2cc1C(=O)Nc1cccc(-c2nc3cc(C)ccc3o2)c1C,/,3%,/,-0.1%,2%[46.1 µM],/,/,-4%
CCC(=O)N1CCc2cc(S(=O)(=O)NC(C(=O)NCCc3ccccc3)C(C)C)ccc21 (centres undefined),/,-20%,/,-0.7%,0%[46.1 µM],-6%[46.1 µM],/,-1%
CC(C)CCOC(=O)C1[C@H]2C(=O)N(Cc3cccs3)C[C@]23C=C[C@H]1O3 (some centres undefined),0%,-6%,?,-9.1%,-5%,-3%,-3%,-2%
COc1cc(C(=O)Nc2cccc(S(=O)(=O)N3CCCC3)c2)c([N+](=O)[O-])cc1OC,4%,-17%,/,/,-26%[46.1 µM],7%,-2%,/
CCN(C(=O)CSc1nc2ccccc2[nH]1)c1ccccc1,/,-5%,/,-1.6%,/,9%[46.1 µM],/,7%
COc1ccc(NC(=O)N2CCC(C(=O)c3ccc4c(c3)OCCO4)CC2)cc1,6%,10%,-11%,/,26%[46.1 µM],?,-4%,/
CC(=O)NC1CC2CCCC(C1)N2S(=O)(=O)c1ccccc1 (centres undefined),1%,-7%,-1%,5.8%,-4%,-9%,3%,-4%
O=C1C=CC2(O[C@H](c3ccccc3)[C@@H](c3ccccc3)O2)[C@H](Sc2ccccc2O)C1,40µM*,7.9µM*,/,/,6.3µM*,?,/,/
COc1ccc(/C=N/Nc2ccc(C(=O)O)cc2)cc1OC,19%,?,11%,/,/,/,2%,/
O=C(CCCOc1ccccc1)Nc1cccc(S(=O)(=O)N2CCCCC2)c1,3%,-3%,/,/,-13%,2%,5%,/
Cc1nn(-c2ccccc2)c(C)c1NC(=O)COC(=O)Cc1cccc(C(F)(F)F)c1,-22%,-3%,/,/,1%[46.1 µM],0%,/,/
O=C(CS(=O)c1ccc(F)cc1)N1CCOCC1 (centres undefined),3%,-14%,1%,/,/,/,0%,/
CCN1CCN(CCCN(Cc2ccco2)C(=S)Nc2ccccc2Cl)CC1,6%,-2%,/,/,-2%,0%[46.1 µM],-3%,/
CC1CC2(C)Oc3ccccc3CC2C(C)C1CNCCCN(C)C (centres undefined),-8%,?,/,/,?,?,-2%,/
# (listing goes on)
SMILES,RE007 growth inh,StopGo reporter,NS1 function inh,Cruzain inh Det,Lassa entry inh,MARV entry inh,SARS PLP yeast,Cruzain noTriton
CC(C)N1CCC(N2CCN(Cc3cccnc3)CC2CCO)CC1 (centres undefined),6%,-16%,3%,/,/,/,-1%,/
O=C(CSc1nc(-c2ccccc2)c(-c2ccccc2)[nH]1)NCC1CCCO1 (centres undefined),-4%,0%,-8%,/,-9%,17%[46.1 µM],-3%,/
CCn1c(SCC(=O)NCC2CCCO2)nnc1-c1c[nH]c2ccccc12 (centres undefined),4%,-5%,5%,4.0%,5%,2%,9%,3%
COc1ccc2[nH]cc(C(=O)CCl)c2c1,21%,28µM*,-55%,/,/,/,0%,/
NC(=O)C(=O)NN=C1CCC(c2ccccc2)CC1 (centres undefined),23%,9%,4%,-2.6%,-1%,7%,1%,-14%
